Screening data (PubChem)
MARV entry inh: Marburg virus entry inhibition. 300,000 compounds, 1.8% hits. AID 540276. Marburg virus pseudotyped entry inhibition, cell reporter; control for the full effect not named in the record; about a third of the inactives were read at about 46 µM. Potency, µM (titrated, usually from 37.8 µM), for the others: top-dose activity change, negative = inhibition, usual class: inhibitors; active = well fitted inhibition curve with a large enough effect; inconclusive = small, poorly fitted or top-dose-only effect, or effect the other way; inactive = flat fitted curve, though single readings scatter; tested in HEK293 cells; about a fifth of its hits are not listed in these tables; note: % is set by controls: 0 for no effect and ±100 for the full control effect; luciferase read-out
RE007 growth inh: less growth of the S. pombe RE007 Vpr strain; S. pombe RE007 Vpr strain, BacTiter-Glo ATP luminescence, 24 h; control for the full effect not named in the record; 360,000 compounds, 0.21% hits; Potency, µM (titrated, usually from 92.2 µM), for the others: top-dose activity change, negative = less growth; active = well fitted falling curve with a large enough effect; inconclusive = small, poorly fitted or top-dose-only effect; inactive = no such curve, though single readings can be large or run the other way;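 note: % is set by controls: 0 for no effect and ±100 for the full control effect; nearly all actives have a fitted effect of over 50% in size; the assay follows cell death caused by Vpr and the record does not say whether a fall means rescue or toxicity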
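Fission yeast RE007 carrying one integrated HIV-1 vpr copy, seeded at OD 0.01 in PMG+AL medium with 23 nL pinned compound. Grown 24 h at 30 degrees; viability read by BacTiter-Glo luminescence after 5 min.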
NS1 function inh: blocks influenza NS1 protein function | 270,000 compounds, 0.4% hits | AID 2326 | S. cerevisiae slowed by influenza A NS1, growth recovery by OD600 | Potency, µM (titrated, usually from 46.1 µM), inactives show at the highest dose activity, positive = more growth; active means well fitted rising curve with a large enough effect; inconclusive means small, poorly fitted or top-dose-only effect; inactive means no such curve, though single readings can be large or run the other way; note: nearly all actives have a fitted effect of over 50% in size
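OD600 was taken as the measure of yeast growth restored by compound in an NS1-expressing S. cerevisiae strain. Cells had been washed out of glucose medium and diluted 1:100 into galactose -URA medium, pH 6.0.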
2A StopGo: FMDV 2A StopGo reporter, luciferase signal | Potency, µM (doses to about 57.9 µM), without a hit: at the top dose signal change, negative = less light | 410,000 compounds, 1.2% hits | human cells with a luciferase reporter of 2A StopGo recoding; control for the full effect not named in the record; active = well fitted falling curve with a large enough effect; inconclusive = small, poorly fitted or top-dose-only effect; inactive = no such curve, though single readings can be large or run the other way; tested in HEK293T cells; note: % is set by controls: 0 for no effect and ±100 for the full control effect; nearly all actives have a fitted effect of over 45% in size; luciferase light after 4 h
Cruzain inh Det: blocks cruzain activity in presence of Triton detergent | Potency, µM, for the others: max response, negative = inhibition, most hits filed as inhibitors | 200,000 compounds, 0.43% hits | AID 1478 | purified cruzain, Z-FR-AMC fluorescence, 0.01% Triton | P25779;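 note: plate controls were neutral wells for no effect and buffer without enzyme for full effect; nearly all actives have a fitted effect of over 40% in size; top concentration of the series not given in the record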
Target sequence (P25779 123-467 limits assumed): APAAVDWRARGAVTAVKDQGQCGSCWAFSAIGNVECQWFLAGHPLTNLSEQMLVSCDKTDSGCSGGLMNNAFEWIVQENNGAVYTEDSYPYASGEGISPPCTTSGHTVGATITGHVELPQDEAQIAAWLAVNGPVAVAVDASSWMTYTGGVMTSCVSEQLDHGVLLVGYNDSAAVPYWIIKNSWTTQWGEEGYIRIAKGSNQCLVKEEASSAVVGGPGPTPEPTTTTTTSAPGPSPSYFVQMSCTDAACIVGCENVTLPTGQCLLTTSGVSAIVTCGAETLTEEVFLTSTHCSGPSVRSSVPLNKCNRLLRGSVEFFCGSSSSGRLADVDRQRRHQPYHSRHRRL
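15 min RT preincubation of 1.5 nM cruzain with compound, then 2 uM Z-FR-AMC added; kinetic AMC fluorescence, 60 s delta. Triton X-100 0.01%, pH 5.5.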
SARS PLP yeast: inhibitors of SARS-CoV papain-like protease in yeast; S. cerevisiae expressing SARS-CoV PLpro, growth rescue; control for the full effect not named in the record; Potency, µM (titrated, usually from 32.9 µM), for the others: at the top dose activity, positive = growth rescue; 330,000 compounds, 0.19% hits; active means well fitted rising curve with a large enough effect; inconclusive means small, poorly fitted or top-dose-only effect; inactive means no such curve, though single readings can be large or run the other way; note: 0% is about no effect; nearly all actives have a fitted effect of over 55% in size; growth read by luminescence after 48 h
Cruzain inh noDet: cruzain (T. cruzi) inhibition without detergent; AID 1476; purified cruzain, Z-FR-AMC fluorescence, no detergent; P25779; 200,000 compounds, 2.3% hits; Potency, µM, without a hit: max response, negative = inhibition, actives largely listed as inhibitors;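 note: plate controls were enzyme without inhibitor for no effect and buffer without enzyme for full effect; nearly all actives have a fitted effect of over 40% in size; top concentration of the series not given in the record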
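Purified cruzain at 1.5 nM, pre-incubated 15 min with compound at room temperature in 100 mM sodium acetate pH 5.5, 5 mM DTT, 0.00005% Triton X-100. Reaction started with 2 uM Z-FR-AMC; AMC fluorescence increase over 60 s gives rate.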
Lassa entry inh: inhibitors of Lassa virus binding or cell entry | Lassa virus pseudotype entry inhibition, cell reporter; control for the full effect not named in the record | Potency, µM (titrated, usually from 37.9 µM), for the others: top-dose activity change, negative = inhibition, usual class: inhibitors | 300,000 compounds, 1.2% hits; active means well fitted inhibition curve with a large enough effect; inconclusive means small, poorly fitted or top-dose-only effect, or effect the other way; inactive means flat fitted curve, though single readings scatter; tested in HEK293 cells; note: % is set by controls: 0 for no effect and ±100 for the full control effect; nearly all actives have a fitted effect of over 50% in size; luciferase read-out
* hit, by the source's call; ? = inconclusive; / = no result given; & = joins results of further samples; [ ] = another dose, or the depositor's remark. Unless noted, calls come from the whole dose curve; as a rule, active = well fitted curve in the direction sought with a large enough effect; inconclusive = small, poorly fitted or top-dose-only effect, or another doubt; inactive = no such curve, though single readings can be large; an effect the other way counts as inactive or inconclusive. Potency is the fitted concentration of half-maximal effect.

Molecule	MARV entry inh	RE007 growth inh	NS1 function inh	2A StopGo	Cruzain inh Det	SARS PLP yeast	Cruzain inh noDet	Lassa entry inh
COc1ccc(-n2c(SCC(=O)c3c(N)n(C)c(=O)n(C)c3=O)nc3ccccc32)cc1	0%&-7%	-10%	4%	-18%	-0.4%	?	-9%	?
O=c1c2ccccc2[nH]c(=S)n1CCCN1CCN(c2ccccc2)CC1	?	-8%	13%	-30%	/	14%	/	?
CCCc1ccc(-c2ccc(C(=O)O)cc2)nc1	?	-5%	-35%	/	-2.0%	-15%	-7%	12µM*
CC(C)OC(=O)CSc1nnc2c3ccccc3n(C)c2n1	9%	2%	-9%	-20%	/	15%	/	12%
Cc1ccc(C)c(NC(=O)CN(C)C(=O)Cc2ccccc2)c1	9%	5%	7%	4%	-0.3%	18%	-4%	?
CCOc1ccc(NC(=O)c2sc(NC(C)=O)c(C(=O)OC)c2C)cc1	-2%[46.1 µM]	7%	3%	3%	/	-2%	/	5%
CC(C)OC(=O)NCCOC(=O)Nc1ccccc1Cl	?	-8%	/	6%	/	6%	/	-7%[46.1 µM]
CCN1C(=O)CSC1=Nc1cccc(C(=O)O)c1	-7%	-4%	13%	2%	/	-9%	/	9%
CCOc1ccc2nc(N(CCN(C)C)C(=O)c3ccc4c(c3)CCCC4)sc2c1	?	-18%	-10%	-21%	/	-1%	/	?
O=C(CSc1nc2ccccc2o1)N1CCN(C(=O)c2ccco2)CC1	?	0%	3%	-2%	0.4%	-5%	-2%	45%
Cn1c(C(=O)NCC2CCCO2)cc2oc3ccccc3c21 (stereo not given)	?	?	-10%	5%	-2.6%	-3%	10%	?
CC(=O)N1CCN(c2ccccc2NC(=O)COc2ccccc2C)CC1	/	-3%	-2%	-14%	/	0%	/	/
O=C(NCCCNC(=O)c1cc(Cl)ccc1Cl)c1ccco1	-16%[46.1 µM]	5%	4%	-3%	/	2%	/	?
COc1cc(-c2noc(C)c2C#Cc2ccccn2)cc(OC)c1OC	/	-13%	-11%	-17%	/	-3%	/	/
CCOC(=O)c1sc(NC(=O)CC2OC(=O)c3ccccc32)nc1C (stereo not given)	-8%	9%	/	-7%	/	-9%	/	-1%
CCCN1C(=O)CSC1=Nc1ccccc1	/	0%	-4%	-7%	/	-1%	/	/
COc1ccc(C(=O)COC(=O)CCc2nc3ccccc3[nH]c2=O)cc1Br	-27%[46.1 µM]	-15%	/	-7%	/	4%	/	2%
Oc1cccc(Nc2ncnc3sc4c(c23)CCCC4)c1	/	/	/	-24%	-6.6%	/	-18%	?
O=C(Nc1ccc(-c2nnc(-c3ccccc3)o2)cc1)C(F)(F)F	-26%	-16%	-17%	-1%	3.8%	-5%	-28%	?
CC(C)(c1ccccc1)c1ccc(OCCN)cc1	-31%	15%	1%	-25%	/	0%	/	-29%
O=C(NNS(=O)(=O)c1ccc([N+](=O)[O-])cc1)c1ccc([N+](=O)[O-])cc1	4%[46.1 µM]	-9%	11%	9%	/	0%	/	2%
COCCn1c(SCC(=O)NNC(=O)c2ccccc2)nc2ccccc21	10%[46.1 µM]	1%	/	-9%	/	8%	/	12%[46.1 µM]
CCCc1nnn(S(=O)(=O)c2ccc([N+](=O)[O-])cc2)c1CCC	1%	-2%	/	-15%	/	/	/	2%
O=C(NCc1ccc(F)cc1Cl)C1CCN(S(=O)(=O)N2CCC3(CC2)OCCO3)CC1	-2%&11%	-16%	-12%	/	-0.9%	-1%	3%	-10%
Cc1nc2cc(-c3ccc(Cl)cc3)nn2c(NCCN(C)C)c1C	?	-16%	1%	13%	/	0%	/	?
Cc1cc(NS(=O)(=O)c2cn(C)nc2C)no1	/	0%	13%	-1%	/	2%	/	/
COc1ccc(OC)c(S(=O)(=O)N2CCCC(C(=O)N3CCCC3)C2)c1 (stereo not given)	-3%	2%	4%	-11%	/	17%	/	5%
Cc1ccccc1OCC(=O)N/N=C/c1ccc(N2CCOCC2)o1	/	-8%	11%	-17%	/	0%	/	/
Cc1cc(C)cc(N(CC(=O)NCCSCc2ccco2)S(C)(=O)=O)c1	5%[46.1 µM]	-7%	-2%	4%	/	-1%	/	?
S=c1[nH]nc(SCc2ccccc2)c2[nH]cnc12	?	3%	/	24%	/	/	/	?

Quoted from the listing.
Reading of `O=C(NCCCNC(=O)c1cc(Cl)ccc1Cl)c1ccco1` in NS1 function inh: 4%
Reading of `COCCn1c(SCC(=O)NNC(=O)c2ccccc2)nc2ccccc21` in MARV entry inh: 10%[46.1 µM]
Reading of `O=C(NNS(=O)(=O)c1ccc([N+](=O)[O-])cc1)c1ccc([N+](=O)[O-])cc1` in MARV entry inh: 4%[46.1 µM]
Reading of `CC(=O)N1CCN(c2ccccc2NC(=O)COc2ccccc2C)CC1` in NS1 function inh: -2%
Reading of `COc1cc(-c2noc(C)c2C#Cc2ccccn2)cc(OC)c1OC` in SARS PLP yeast: -3%
Reading of `CC(C)OC(=O)NCCOC(=O)Nc1ccccc1Cl` in Lassa entry inh: -7%[46.1 µM]
Reading of `COc1ccc(C(=O)COC(=O)CCc2nc3ccccc3[nH]c2=O)cc1Br` in Lassa entry inh: 2%

Going on with the list:
Molecule	MARV entry inh	RE007 growth inh	NS1 function inh	2A StopGo	Cruzain inh Det	SARS PLP yeast	Cruzain inh noDet	Lassa entry inh
O=C(Nc1ccc2c(c1)CCC2)c1ccccc1	?	-30%	9%	?	-1.4%	-59%	9%	?
CCC1(c2ccccc2)NC(=O)N(CC(=O)Nc2cc(S(=O)(=O)N3CCCCCC3)ccc2OC)C1=O (stereo not given)	?	8%	/	-30%	/	1%	/	?
CC(=O)N1CCN(c2ccc(Oc3nnnn3-c3ccccc3)cc2)CC1	?	8%	-2%	?	0.8%	-1%	9%	-17%
Oc1ccc2ccccc2c1CNc1cnc2ccccc2c1	-1%&-1%	-7%	4%	/	?	-15%	7%	-1%
Clc1ccc(-c2c[n+]3c(n2-c2ccccc2)SCC3)cc1	36%	0%	/	-28%	/	0%	/	-18%
CCC(=O)Nc1ccc2c(c1)ncn2-c1ccccc1OC	?	7%	-2%	5%	-0.2%	-4%	11%	11%
CCOc1ccccc1-c1nc(-c2cccc(Br)c2)no1	-4%	2%	0%	6%	-9.9%	8%	3%	5%
COc1cc(OC)c([C@H]2C=C(C)[C@H]3C[C@@H]2C3(C)C)c(OC)c1	-20%[46.1 µM]	3%	/	-19%	/	/	/	-6%
Cc1ccc(N2CCN(C(=O)c3nn(C)c4c3CSc3ccccc3-4)CC2C)cc1 (stereo not given)	1%[46.1 µM]	/	/	-7%	-4.3%	/	-8%	?
COCCNC(=O)CSc1nc2cc3c(cc2c(=O)n1Cc1ccc(C(=O)NCCc2ccc(OC)c(OC)c2)cc1)OCO3	/	/	/	6%	0.6%	/	2%	14%[46.1 µM]
CCOc1ccc(NC(=O)C2CCC(CNS(=O)(=O)c3ccc(Br)s3)CC2)cc1 (stereo not given)	-6%[46.1 µM]	/	/	0%	-1.2%	/	?	2%[46.1 µM]
Cc1ccsc1/C=C/c1ccc2ccccc2n1	?	-30%	-84%	-27%	-6.5%	-1%	-5%	13µM*
Cc1ccc(C(=O)NCC(c2ccc(F)cc2)N2CCOCC2)s1 (stereo not given)	-5%	16%	/	-1%	/	3%	/	5%
CC(C)Oc1ccccc1C1CC(=O)Nc2c1c(=O)n(C)c(=O)n2C (stereo not given)	-2%	/	3%	/	3.2%	7%	-3%	/
Cc1cc(C(=O)COC(=O)c2ccc(NC(=O)CC#N)cc2)c(C)n1C1CC1	?	3%	/	-4%	/	-2%	/	-20%
Cc1ccc(N)cc1O	/	-3%	/	-9%	1.6%	-2%	-2%	/
Cc1nnc(C)n1/N=C/c1cccc([N+](=O)[O-])c1	-1%[46.1 µM]	-4%	-2%	2%	/	-1%	/	3%
CC(NC(=O)c1ccc(OC2CCN(C(=O)c3cccnc3)CC2)cc1)C1CC1 (stereo not given)	11%[46.1 µM]	-2%	-1%	-9%	/	-1%	/	9%[46.1 µM]
COc1ccc(C(=O)NCCCNC(=O)c2ccccn2)cc1	14%[46.1 µM]	-6%	1%	-1%	/	0%	/	29%[46.1 µM]
C=CCN(CC(=O)NC1CCS(=O)(=O)C1)S(=O)(=O)c1ccccc1C(F)(F)F (stereo not given)	1%[46.1 µM]	6%	/	-4%	/	-1%	/	0%[46.1 µM]
O=C(NC1CC1)C1CCN(C2CCN(C(=O)c3ccc4cccc(F)c4n3)CC2)CC1	-17%	1%	4%	3%	/	0%	/	8%
Cc1ccc(-c2csc(N(Cc3ccco3)C(=O)c3cccs3)n2)cc1	-24%	3%	-2%	-4%	-6.4%	5%	-29%	-3%

Random excerpt: four entries already listed, in no set order.
Molecule	MARV entry inh	RE007 growth inh	NS1 function inh	2A StopGo	Cruzain inh Det	SARS PLP yeast	Cruzain inh noDet	Lassa entry inh
Cc1cc(C(=O)COC(=O)c2ccc(NC(=O)CC#N)cc2)c(C)n1C1CC1	?	3%	/	-4%	/	-2%	/	-20%
COCCNC(=O)CSc1nc2cc3c(cc2c(=O)n1Cc1ccc(C(=O)NCCc2ccc(OC)c(OC)c2)cc1)OCO3	/	/	/	6%	0.6%	/	2%	14%[46.1 µM]
CCOc1ccccc1-c1nc(-c2cccc(Br)c2)no1	-4%	2%	0%	6%	-9.9%	8%	3%	5%
CCC1(c2ccccc2)NC(=O)N(CC(=O)Nc2cc(S(=O)(=O)N3CCCCCC3)ccc2OC)C1=O (stereo not given)	?	8%	/	-30%	/	1%	/	?
